# From PubChem BioAssay
# CapD inh: Bacillus anthracis CapD inhibitors, primary screen, biochemical, fluorescence intensity; purified CapD enzyme, fluorescence intensity read-out; hits give low values; some hits fall short of the stated cut; z-score (concentration not given with the values); 140,000 compounds, 0.23% hits;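 active = z-score under -4 in either of two replicates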;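 note: stock transfer was 100 nL into about 40 µL; score is relative to mean and spread of the plate; one replicate is shown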
# AID504770: growth inhibition of E. coli YBA685, primary screen, V. cholerae RctB inhibitors | E. coli YBA685 rctB-dependent plasmid, OD600 growth, 3 h; hits give low values | z-score (concentration not given with the values) | 130,000 compounds, 0.27% hits;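 active = z-score under -2 on both plates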;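 note: wells of about 30 µL received 100 nL stock; score is relative to mean and SD of the test wells; the first replicate is given; strong numbers were not always called active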
# * hit, by the source's call; i = inactive; x = not tested or not shown; & = joins results of further samples.
structure | CapD inh | AID504770
O=C(c1ccccc1)c1cc2c(cc1Br)OCCCO2 | -0.04 | x
O=C1CC(SC(=Nc2ccccc2)Nc2ccccc2)C(=O)N1CCc1ccccc1 (configuration not stated) | 0.225 | 0.1
COc1ccc(CC(=O)N2N=C(c3ccncc3)CC2(O)C(F)(F)F)cc1 (configuration not stated) | x | 1.65
CCOc1ccc2nc(C(=O)N3CCCC(C)C3)sc2c1 (configuration not stated) | 0.45 | 0.4
O=C1c2ccccc2C(=O)c2c(NC3CCCCC3)ccc(Nc3ccc(Oc4ccccc4)cc3)c21 | 0.26 | x
CN(C)c1cc(C(=O)O)ccn1 | x | -0.8
CC(C)CC(F)Cc1cnc(=O)[nH]c1 (configuration not stated) | 0.72 | -0.35
N#Cc1nc(-c2ccc(Cl)cc2)oc1NCc1ccccc1 | x | -0.05
COc1cccc(Oc2coc3cc(OCC(N)=O)ccc3c2=O)c1 | 1.17 | -0.45
NCCCN(Cc1ccco1)C1CCCC1 | -0.195 | -1
Cc1cc(C)c(CCOC(=O)NNC(=O)c2scc(C)c2-n2cccc2)c(C)c1 | 0.605 | x
NNc1c(Cl)c(Cl)nc(C(=O)O)c1Cl | x | 0.05
Nc1ccc(N2CCN(c3ccc(C(F)(F)F)cn3)CC2)nc1 | 29.8 | -0.25
COc1ccc(-c2nc(SC)c(S(=O)(=O)c3ccc(C)cc3)[nH]2)cc1 | 0.445 | 0.15
COc1ccc(C(O)=C2C(=O)c3ccccc3C2=O)cc1 | -0.67&-1.02 | 0.85&2.2
O=C(Cn1c2ccccc2c(=O)c2ccccc21)Nc1ccc(Cl)cc1C(=O)c1ccccc1 | 31.2 | x
CS(=O)(=O)c1ccc(C(=O)OCc2cc(=O)n3ccsc3n2)cc1 | x | 1.35
O=C(OCc1nc2ccccc2s1)c1ccc(F)cc1F | -0.04 | -0.4
CCSc1nnc(NC(=O)CC)s1 | i | -0.05
Cc1ccc(S(=O)(=O)CC(=O)N(C)C)cc1 | 0.105 | 0.85
Cc1nn(C)cc1CNC(=O)c1ccccc1Br | 0.195 | -1.2
CCOc1ccc2cc(C(=O)c3ccc(OC(F)F)cc3)oc2c1 | x | 0.05
COc1ccc(/C=N/NC(=S)Nc2c(C)n(C)n(-c3ccccc3)c2=O)cc1OC | x | 0.65
O=C(CSc1nncs1)NC(=O)C1CCCCC1 | x | -0.35
O=C(O)/C=C/S(=O)(=O)c1ccccc1 | x | -0.25
Cc1nn(CC(C)C)c(Cl)c1C(=O)N1CCCC1c1nc2ccccc2s1 (configuration not stated) | x | -0.7
O=C1CCCc2c1n(CCN(Cc1ccccc1)Cc1ccccc1)c1ccc(Cl)cc21 | 0.555 | 1.7
Cc1ccc(C)c(Nc2nc(NCc3ccco3)c3ccccc3n2)c1 | 23.6 | x
O=C(Nc1ccc2c(c1)OCCO2)c1ncn[nH]1 | -0.435 | 0.15
Cc1c(C(=O)N2CCC(C)CC2)sc2nc(-c3ccc(F)cc3)cn12 | 0.28 | -0.3
Cc1nnc(Nc2ccc(CC(N)=O)cc2)c2ccccc12 | -1.06 | 1.4
Cc1nn(-c2ccc(Cl)cc2)c2sc(C(=O)NC(C)(C)CO)cc12 | x | -0.8
O=C(Nc1ccc(I)cn1)c1ccc(-c2ccc(Cl)cc2)o1 | 9.38 | 0.05
Cc1cc(N2CCN(C(c3ccccc3)c3ccccc3)CC2)n2c(nc3ccccc32)c1C#N | 0.49 | x
COc1ccc2[nH]c(C(=O)NCc3ccc4c(c3)OCO4)cc2c1 | 41.8 | 1.25
C=CCn1c(COc2ccccc2F)nnc1SC(C)C(=O)NC(N)=O (configuration not stated) | x | -0.3
NC(=O)CSc1nnc(-c2ccco2)n1N | 1.2 | -0.85
CC(C)c1nc2ccccc2c2c1C(=O)N(CCCn1ccnc1)C2=O | 0.075 | x
COc1cccc(C2CC(c3ccccc3)=NN2S(=O)(=O)c2ccccc2)c1OC (configuration not stated) | 0.325 | x
Cc1ccc(NC(=O)c2cccn(Cc3cccc(C(F)(F)F)c3)c2=O)cc1 | -1.44 | x
O=S(=O)(Cc1ccccc1)N/N=C/c1ccc2c(c1)OCO2 | -0.215 | -0.2
COC(=O)c1c(C)oc2ccc(N(C(=O)c3cccc([N+](=O)[O-])c3)S(=O)(=O)c3ccc4ccccc4c3)cc12 | -0.905 | x
O=C(NCCO)c1c(O)nc2ccccn2c1=O | 91.8 | -0.7
CCc1nnc2c3ccccc3nc(Nc3cccc(C(=O)O)c3)n12 | -1.08 | -0.25
CCOC(=O)/C(C#N)=C1/NC(=O)Nc2ccccc21 | 0.585 | -0.45
Fc1cccc(CSc2ncc3ccccn23)c1 | 6 | -0.75
O=C1CN(c2ccccc2)C(=O)C1C(=O)N1CCOCC1 (configuration not stated) | -0.345 | -0.05
CCc1nc(NC(=O)NS(=O)(=O)c2ccccc2C(=O)OC)nc(OC)n1 | 0.095 | -0.6
Cc1cccc(-c2nc(Nc3ccc(F)cc3F)c3ccccc3n2)c1 | 0.915 | x
CCOc1ccc(-n2nc(C(=O)N3CCC(C(N)=O)(N4CCCCC4)CC3)c3ccccc3c2=O)cc1 | 0.43 | x

# Rewritten as labelled records: part of the list above.
SMILES: O=C1CCCc2c1n(CCN(Cc1ccccc1)Cc1ccccc1)c1ccc(Cl)cc21
  CapD inh = 0.555
  AID504770 = 1.7

SMILES: Cc1ccc(C)c(Nc2nc(NCc3ccco3)c3ccccc3n2)c1
  CapD inh = 23.6
  AID504770 = x

SMILES: O=C(Nc1ccc2c(c1)OCCO2)c1ncn[nH]1
  CapD inh = -0.435
  AID504770 = 0.15

SMILES: Cc1c(C(=O)N2CCC(C)CC2)sc2nc(-c3ccc(F)cc3)cn12
  CapD inh = 0.28
  AID504770 = -0.3

# Other results.
structure | CapD inh | AID504770
COC(=O)NC(=Nc1c(C)cc(C)cc1C)C(F)(F)F | 0.765 | -0.2
c1ccc2c(c1)NC(c1ccncc1)n1c-2nc2ccccc21 (configuration not stated) | 0.08 | -0.2
O=C(CSc1nc2ccccc2c(=O)n1CCCN1CCCCC1)NCCc1ccccc1 | -0.625 | 2.05
Cc1ccc(C(=O)OCCOc2ccccc2F)cc1 | -1.04 | -0.75
CN1CCN(c2ccccc2NC(=O)Cn2cnc3onc(-c4ccc(F)cc4)c3c2=O)CC1 | 0.21 | 0.35
Cc1cc2[nH]c(=O)c(=O)[nH]c2cc1S(=O)(=O)NCc1cccs1 | 20.1 | -0.4
CC12CCC(CC1=O)C2(C)C (configuration not stated) | 0.275 | x
Cc1onc(-c2ccccc2)c1-c1[nH]nc(N)c1C#N | -0.02 | 0.4
FC(F)(F)c1nc2ccccc2nc1-c1cccc(Cl)c1 | -0.835 | 0.5
CCOC(=O)CCc1c(C)nn(-c2ccc3nnc(C)n3n2)c1C | 0.37 | 0.1
O=C(NCCN1CCOCC1)c1ccc2c(c1)N(Cc1ccc(Cl)cc1)CCS2 | 82.9 | -1
O=c1c2cc3ccccc3oc-2nn1-c1ccc(Cl)cc1 | -1.36 | 1.05
CC1CN(c2nc(-c3ccccc3)nc3ccccc23)CC(C)O1 (configuration not stated) | 0.105 | -0.9
O=[N+]([O-])c1ccc(NN2C3CCC2c2c(ccc4ccccc24)O3)c([N+](=O)[O-])c1 (configuration not stated) | -0.795 | x
CC(C)S(=O)(=O)c1csc(NC(=O)Nc2cc(C(F)(F)F)cc(C(F)(F)F)c2)c1Cl | 0.1 | -0.7
c1ccc(-c2ccc(C3Nc4cccc5cccc(c45)N3)cc2)cc1 | 0.365 | x
Cn1c(=O)c(=O)n(C)c2cc(S(=O)(=O)N3CCc4ccccc43)ccc21 | -0.14 | 0.6
COc1ccccc1N(CCCN1C(=O)c2cccc3cccc(c23)C1=O)C(=O)c1cccs1 | 2.6 | x
COC(=O)CSc1nnc(C2CCCCC2)o1 | x | 1.2
N[C@@H](Cc1ccc([N+](=O)[O-])cc1)C(=O)O | -1.39 | x
O=C(CSc1cn(CCNC(=O)c2ccccc2)c2ccccc12)NCc1ccco1 | 0.27 | -0.25
O=C(CN1CCCCC1)N/N=C/c1ccc(Cl)cc1 | x | -0.15
O=C(NNC(=O)c1cc2cc3ccccc3nc2s1)c1ccc(F)cc1 | 0.13 | x
CCOC(=O)C1=C(C)Nc2nc3ccccc3n2C1c1ccc(Cl)cc1 (configuration not stated) | 24.2 | x
CCOC(=O)N1CCC(Nc2nc3ccccc3nc2NS(=O)(=O)c2ccc(Cl)cc2)CC1 | 0.155 | -0.5
CC(C)(C(=O)Nc1ccc2c(c1)OCO2)C(=O)Nc1ccc2c(c1)OCO2 | x | 0.3
CS(=O)c1cnc(-c2ccc(C(F)(F)F)nc2)nc1-c1ccc(C(F)(F)F)cc1 (configuration not stated) | -0.325 | x
CCOC(=O)c1ccc(Nc2nc3nonc3nc2NCc2ccco2)cc1 | x | 0
CCc1ccc(NC(=O)c2ccc3c(c2)N(CC)CCS3)cc1 | 61.4 | 2.35
O=c1cc(NCCc2ccccc2)c2ccccc2o1 | x | 2.35
CC(O)C12c3ccccc3C(c3ccccc31)C1C(=O)N(c3cccc(Br)c3)C(=O)C12 (configuration not stated) | 0.15 | x
CCCOc1ccc(CNC(=O)Cn2ncc3ccccc32)cc1 | -0.975 | -0.3
CCCN1C(=O)/C(=N\OCC(=O)Nc2ccc3c(c2)OCO3)c2ccccc21 | x | -0.4
O=C1/C(=C/c2cccs2)SC(=S)N1CCCC(=O)N1c2ccccc2Sc2ccccc21 | -1.19 | -0.9
CC(C(=O)N(C)c1ccccc1)N1CCN(c2ccc(C(F)(F)F)cn2)CC1 (configuration not stated) | x | -0.15
Cc1cc(C)c(OCC(=O)N/N=C/c2ccc(O)cc2O)c(Br)c1 | x | -0.4
CCOc1ccc(CCNC(=O)c2cc3c(s2)-c2ccccc2S(=O)(=O)C3)cc1OCC | 1.3 | -0.15
O=C(CSc1ncccn1)N(Cc1ccccc1)C1CCS(=O)(=O)C1 (configuration not stated) | x | 0.6
COC(=O)CCCCCCCC(=O)Nc1ccc(C(F)(F)F)cc1 | 0.48 | x
Cc1cccc(NC(=O)c2cccc(Br)c2)n1 | -0.245 | -0.45
CCCN1C(=O)/C(=C/c2ccc(C(C)C)cc2)SC1=S | -0.365 | -0.05
COc1c(C(N)=O)csc1Br | -0.155 | 2.55
OC(CN1CCC(O)(c2ccc(Cl)cc2)CC1)C(F)(F)F (configuration not stated) | -0.175 | -0.8
CC(=O)N(c1ccccc1)c1nc(CSc2nnc(-c3ccc(Cl)cc3)o2)cs1 | x | -0.65
CC(NC(=O)c1ccc(F)cc1Cl)C(c1cccs1)N1CCCC1 (configuration not stated) | 0.425 | -1.5
COc1ccc(C2N(S(=O)(=O)c3ccccc3)CCN2S(=O)(=O)c2ccc(C)cc2)cc1 (configuration not stated) | -0.515 | x
CC(NC(=O)C1CCC(=O)N1Cc1ccccc1Cl)c1ccc2c(c1)OCCO2 (configuration not stated) | 0.05 | 0.85
O=C(NCc1nnc(SC/C=C/c2ccccc2)o1)c1cccs1 | -0.455 | -0.45
CC(=O)c1cc(C#N)c(NCc2cc(-c3ccc(Cl)cc3)no2)nc1C | -0.39 | x
Cn1c2c(c(=O)n(C)c1=O)C(O)(C(F)(F)F)C(=O)N2 (configuration not stated) | -0.775 | -0.4

# The list goes on.
structure | CapD inh | AID504770
CN(C)C=NC(=O)c1ccc(-c2cccs2)s1 | 65 | -0.4
CC(Sc1nnc(-c2c[nH]c3ccccc23)o1)C(=O)Nc1ccccc1 (configuration not stated) | x | -0.5
CCOc1ccc(NC(=O)CSc2nc3ccccc3c(=O)n2NC(=O)Cc2ccccc2)cc1 | 0.13 | x
COC(=O)C1=C(C)NC(=O)NC1c1cn(-c2ccccc2)nc1-c1ccc(OC)cc1 (configuration not stated) | -0.125 | x
COc1cccc(CNC(=O)C2c3ccccc3C(=O)N3CCc4cc(OC)c(OC)cc4C23)c1 (configuration not stated) | 0.52 | 2.1
CCc1ccc(NC(=S)N(CCCN2CCCCC2)Cc2cccs2)cc1 | 0.68 | x
COc1cc(/C=C2\SC(N)=NC2=O)ccc1OCc1ccc(C)cc1 | 0.19 | x
CC(=O)OCc1ccc(/C=N/NC(=O)CC2Sc3ccccc3NC2=O)o1 (configuration not stated) | -0.715 | x
CN(C)/C=N/c1nc(Sc2ccc(C(F)(F)F)cc2[N+](=O)[O-])n[nH]1 | -0.3 | x
CCn1c(C)[n+](CC)c2ccccc21 | 0.95 | -0.35
CCNC(=O)CC1Sc2ccc(C(F)(F)F)cc2NC1=O (configuration not stated) | -0.37 | -0.2
CC1(C)Cc2c(c(N3CCOCC3)nc3sc4c(NCCCO)nnnc4c23)CO1 | 0.445 | -0.05
COC(=O)CSc1ccnc2cc(Cl)ccc12 | 0.265 | -0.9
C/C(=N\O)C(=O)NCc1cccnc1 | x | -0.6
COc1ccccc1N1CCN(C(=O)Nc2ccc(Br)cc2)CC1 | -0.44 | x
COc1ccccc1C1CCN(C(=O)c2ccco2)CC1 | 0.455 | -1.35
COc1ccccc1CCOC(=O)NC(Cc1c[nH]c2ccccc12)C(=O)OCc1ccccc1 (configuration not stated) | -0.4 | x
Cc1nnc(SCC(=O)c2ccc3c(c2)NC(=O)CO3)n1C1CC1 | x | -0.15
COc1cccc(=O)c2c(C)n(C)c(C)c12 | -3 | -0.65
CCOC(=O)c1oc2ccccc2c1N=Cc1c(O)[nH]c(=O)[nH]c1=O | x | 0.4
CC(C)(C)c1ccc(OCCOc2ccccc2C=C2C(=O)NC(=S)NC2=O)cc1 | -0.515 | x
CC(C)n1cn[nH]c1=S | x | 0.15

# Compounds above with a nitro group on carbon:
structure | CapD inh | AID504770
COC(=O)c1c(C)oc2ccc(N(C(=O)c3cccc([N+](=O)[O-])c3)S(=O)(=O)c3ccc4ccccc4c3)cc12 | -0.905 | x
O=[N+]([O-])c1ccc(NN2C3CCC2c2c(ccc4ccccc24)O3)c([N+](=O)[O-])c1 (configuration not stated) | -0.795 | x
N[C@@H](Cc1ccc([N+](=O)[O-])cc1)C(=O)O | -1.39 | x
CN(C)/C=N/c1nc(Sc2ccc(C(F)(F)F)cc2[N+](=O)[O-])n[nH]1 | -0.3 | x
